# HNF4A DNA FP: change in binding of human HNF4 alpha to DNA; HNF4a-FITC DNA binding, fluorescence polarization, 1 h; activity change, % at 10 µM; hit rate 0.3% among 360,000; P41235; in the data active means activity change above about 30%, passing the limit was not always enough;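 further: controls were the assay level and a saturating level of protein; the project sought stronger binding though the title names inhibitors; some compounds called inactive have numbers as strong as hits; positive values seem to mean higher polarization but the record does not say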
# Beta2AR agonist: activates human beta-2 adrenergic receptor causing internalization. P07550. Am2.2-beta2AR cells, FAP receptor internalization, flow cytometry; reference of the scale not given here. response, % (concentration not given with the values). hit rate 0.43% among 340,000. AID 504454;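 active means response above a set limit, near 3 SD of response in nonfluorescent compounds, cut at about 42% in these data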;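 further: stock transfer was 100 nL into about 11 µL; a reference agonist was the positive control; negative values mostly stem from fluorescent compounds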
# Target sequence (P07550 whole entry, looked up): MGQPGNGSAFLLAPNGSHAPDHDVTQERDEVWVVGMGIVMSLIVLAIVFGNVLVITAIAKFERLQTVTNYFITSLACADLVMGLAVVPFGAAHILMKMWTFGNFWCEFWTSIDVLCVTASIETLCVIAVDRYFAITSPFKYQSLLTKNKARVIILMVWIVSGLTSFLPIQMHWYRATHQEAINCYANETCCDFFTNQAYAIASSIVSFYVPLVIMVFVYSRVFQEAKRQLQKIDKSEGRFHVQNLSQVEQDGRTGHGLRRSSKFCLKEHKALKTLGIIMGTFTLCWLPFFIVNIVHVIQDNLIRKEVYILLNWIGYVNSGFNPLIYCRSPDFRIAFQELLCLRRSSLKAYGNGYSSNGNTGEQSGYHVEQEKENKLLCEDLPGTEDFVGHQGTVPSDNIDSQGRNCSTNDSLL
# UCH37 DUB inh: inhibitors of human deubiquitinating enzyme UCH37 | Q9Y5K5 | purified proteasome/UCH37, Ub-AMC cleavage fluorescence | inhibition, % (no concentration beside the values) | hit rate 0.33% among 330,000 | AID 588478;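 active means mean of two replicates above 20%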;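 further: 0% = compound-free wells with enzyme and 100% = wells lacking proteasome; stock transfer was 100 nL into about 20 µL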
# Target sequence (Q9Y5K5 whole entry, looked up): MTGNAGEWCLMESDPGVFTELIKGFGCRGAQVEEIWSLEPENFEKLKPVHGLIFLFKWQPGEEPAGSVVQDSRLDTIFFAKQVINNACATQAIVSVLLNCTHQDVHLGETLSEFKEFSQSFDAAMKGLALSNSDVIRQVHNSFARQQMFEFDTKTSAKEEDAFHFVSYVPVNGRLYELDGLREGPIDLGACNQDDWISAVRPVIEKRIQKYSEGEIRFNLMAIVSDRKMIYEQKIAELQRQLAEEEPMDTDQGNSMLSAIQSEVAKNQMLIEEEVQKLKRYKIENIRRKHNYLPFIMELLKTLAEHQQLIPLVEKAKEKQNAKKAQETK
#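 Material: human UCH37 enzyme supplied as purified proteasome complex / Amount: 0.15 nM proteasome as dispensed / Buffer or medium: pH 7.4 Tris-HCl (50 mM) with ovalbumin, ATP-MgCl2, DTT / Times: preincubation 30 min, reaction 25 min, room temperature / Technique: AMC fluorescence from Ub-AMC cleavage, excitation 355 nm, emission 460 nm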
# E coli growth: inhibitors of Escherichia coli growth; AID 1053175; hit rate 0.21% among 330,000; OD600, 23 h; hits give low values; OD600 absorbance (test concentration not listed);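 active means OD600 absorbance below the run mean of sample wells minus 3.6 SD, in any replicate, cut at about 0.56 in these data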;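 further: stock transfer was 300 nL into about 60 µL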
# Bfl-1 A1 inh: inhibitors of the anti-apoptotic protein A1, read as caspase activation; MEF A1-2A-BIM cells, Caspase-Glo 3/7 luminescence, 3 h; percent of clofoctol response, vehicle zero; caspase activation, % (no concentration beside the values); hit rate 0.066% among 330,000;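 active means over half of replicate activation scores above 10%, or exactly half above 10 with the replicate mean above 10; inconclusive means replicate mean below 10 yet half the replicates above 10; inactive means over half of replicates below 10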;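 further: wells of about 30 µL received 50 nL stock; many hits fall short of the cut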
# LANA-H2A inh: blocks KSHV LANA binding to histone H2A/H2B; inhibition, % (test concentration not listed); cell-free LANA-H2A/H2B peptide, fluorescence polarization; hit rate 0.6% among 320,000; AID 2629; Q9QR71; in the data active means inhibition mostly above about 10%, no sharp cut-off; inactive means mostly below about 6.7%;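 further: stock transfer was 7.5 nL into about 10 µL; 0% = median of vehicle wells and 100% = median of positive control wells; one replicate is shown; the record names a cut of 25% in any replicate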
# Vif TR-FRET: HIV-1 Vif–A3G interaction blockers – biochemical, TR-FRET, GST-Vif 1-94, biotin-A3G peptide, dose response retest, primary screen (AID 1117319); hit rate 0.57% among 260,000; TR-FRET GST-Vif / biotin-A3G peptide binding; higher % means a stronger effect; test concentration not given here; strong numbers were not always called active; inhibition, %, or IC50 in µM where a hit was titrated;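 active means above the screen mean plus three standard deviations and confirmed in dose response; inconclusive means results disagree or hit not tested in dose response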;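 further: Vif residues 1-94 fused to GST binding biotinylated APOBEC3G peptide 110-148; 0% = full assay without inhibitor and 100% = GST in place of GST-Vif; retest series ran down from 100 µM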
# Numbers without * were called inactive; ? = inconclusive; . = not tested or not shown.
SMILES,HNF4A DNA FP,Beta2AR agonist,UCH37 DUB inh,E coli growth,Bfl-1 A1 inh,LANA-H2A inh,Vif TR-FRET
O=C(CN(Cc1ccco1)C(=O)c1ccc(Cl)cc1)Nc1ccc(Cl)c(Cl)c1,0.4,1,-0.4,0.69,1.5,3.5,20%
CC(C)C[C@H](NC(=O)N1CCn2c1nc1ccccc12)C(=O)NCc1ccccc1,-1.5,-1,-0.1,0.67,3.3,1.4,.
Clc1ccc(-c2ccc(/C=N/Nc3cc(N4CCOCC4)nc(N4CCOCC4)n3)o2)cc1,-0.5,27,.,.,1.7,7.1,.
CNc1ccccc1,0.8,-2,-2.5,0.68,0.7,0.3,.
Cn1c(CCNC(=O)c2ccccc2)nc2cc(NC(=O)c3ccco3)ccc21,-3.7,-5,3.4,0.69,0.9,-5.5,9%
CCOC(=O)c1c(NC(=O)CSc2nc3ccccc3s2)sc(C(C)=O)c1C,6.3,4,5.2,0.67,-0.1,0.6,19%
Cc1ccc(N(CC(=O)NCc2ccc(F)cc2)C(=O)c2ccco2)cc1C,-0.1,3,6.6,0.68,0.2,2.2,.
O=c1ccc(-c2ccccc2)nn1Cc1ccc(F)cc1,-2.3,17,1.4,0.61,0.9,0.6,9%
CC(C)NCC(O)COCCOc1ccc(C(C)(C)C)cc1 (stereo not drawn),-1.7,1,-1.1,0.71,0.6,-3.2,8%
NC(=O)c1c(NC(=O)C2CCCO2)sc2c1CCC2 (stereo not drawn),7.5,-6,-4.2,0.7,1.0,-2.6,4%
Cc1ccc2cc(C)c3nnc(SCc4ccc(C(=O)O)cc4)n3c2c1C,-1.6,0,-0.4,0.63,0.4,1.6,1%
Cc1ccc(-n2nc3c(=O)n(CCCC(=O)N4CCC(C(N)=O)CC4)nc(C)c3c2C)cc1,0.9,-5,2.9,0.7,0.0,-0.1,.
COc1cc(NCCCCCCCN)c2ncccc2c1,-1.2,25,8.8,0.63,0.4,0.0,4%
CCN(CC(=O)Nc1cccc(OC)c1)CC(=O)Nc1ccc(C)cc1Cl,4.8,-2,1.8,0.72,0.1,3.5,12%
CC1(C)Cc2c(sc3nc(N/N=C/c4ccccc4)[nH]c(=O)c23)CO1,2.3,-1,.,.,0.5,3.8,-1%
CCOc1ccc(C(CC(=O)O)NC(=O)C(Sc2ccccc2)c2ccccc2)cc1 (stereo not drawn),-1.8,14,-0.5,0.66,-0.4,-1.3,1%
C=CCn1cnnc1SCC(=O)N(C1CCCCC1)C1CCS(=O)(=O)C1 (stereo not drawn),-2.5,10,0.9,0.68,0.0,1.0,-11%
COc1ccc(OC)c(NC(=O)C2C(C(=O)O)C3(Cl)C(Cl)=C(Cl)C2(Cl)C3(Cl)Cl)c1 (stereo not drawn),-2.1,-8,1.1,0.68,-0.4,-0.9,?
O=C(Nc1ccc2c(c1)OCCO2)C1CCN(C(=O)c2ccc(Br)cc2)CC1,0.4,-2,0.8,0.68,0.0,1.2,?
COc1ccc(S(=O)(=O)N2CCCC(C(=O)N3CCOCC3)C2)cc1Cl (stereo not drawn),-1.7,-6,3.6,0.73,-0.3,-0.8,.
O=C(Nc1cccc([N+](=O)[O-])c1)N1CCc2ccccc2C1,-0.2,-2,1.0,0.59,0.4,0.6,.
Cc1c(NC(=O)CN2C(=O)NC3(CCCC3)C2=O)c(=O)n(-c2ccccc2)n1C,2.8,2,2.6,0.67,0.6,5.4,-6%
CCCN=C1N(C)C[C@@H]2[C@@H]3C(=O)N(C)C(=O)[C@@H]3[C@](Cc3ccccc3)(C(=O)OC)N12,0.9,4,0.7,0.7,.,.,0%
O=C(CNCc1ccccn1)N1CCc2ccccc2C1,3.6,-3,-5.5,0.73,0.0,-4.3,32%
CCN(CC)S(=O)(=O)c1ccc(C)c(NC(=O)CN(C)C)c1,-4.0,15,4.5,0.71,0.8,7.0,.
Brc1ccc(C2=Nn3c(nnc3-c3cccnc3)SC2)s1,-1.1,20,7.1,0.76,0.3,-4.1,-1%
COc1ccc(CN(C(=O)c2snc(C(N)=O)c2N)C(C(=O)NC2CCCC2)c2ccc(OC)cc2)cc1 (stereo not drawn),-0.3,1,-49,0.65,-0.4,0.7,-8%
CC1(C)CC(=O)C=C(c2cc3ccccc3s2)C1,-0.4,-2,3.3,0.7,0.3,1.2,.
Cc1onc(-c2ccccc2Cl)c1C(=O)NCc1nnnn1-c1ccc(F)cc1,2.0,-1,-1.3,0.65,0.0,3.9,-6%
O=C(C1CCN(S(=O)(=O)N2CCOCC2)CC1)N1CCN(Cc2ccc3c(c2)OCO3)CC1,-0.6,8,1.0,0.73,.,.,74%
Cc1ccc(S(=O)(=O)N2CCOCC2)cc1NC(=O)COC(=O)CCC(=O)c1ccc(F)cc1,5.7,1,1.7,0.69,.,.,5%
COc1ccc(-c2csc(NC(=O)CN3C(=O)NC4(CCCC4)C3=O)n2)c(OC)c1,-5.0,8,2.0,0.67,0.3,2.1,3%
CC(=O)N1c2ccc(S(=O)(=O)N3CCC(C(=O)NCc4ccccc4Cl)CC3)cc2CC1C (stereo not drawn),-0.7,0,-2.7,0.69,-0.9,3.0,.
CC1CCN(C(=O)COC(=O)CCC(=O)c2ccc(Cl)cc2)CC1,0.0,-5,3.5,0.7,-0.9,-2.9,.
CC(=O)CSc1nc2cc3c(cc2cc1C#N)OCCO3,1.4,20,-1.5,0.69,-1.2,-1.1,-21%
COc1cccc(/C=N/N2CCN(c3ccc(Cl)cc3)CC2)c1OC,2.1,8,.,.,-0.1,3.5,-1%
CCOc1ccc2nc(C)cc(Nc3ccc4c(c3)OCCO4)c2c1,2.2,-2,8.0,0.65,0.2,6.2,2%
O=C(NCCS(=O)(=O)NCc1ccc(F)cc1)c1ccccc1,3.1,-12,-0.1,0.6,0.0,0.3,0%
Cc1ccc(C(=O)Nc2c3c(nn2C(C)(C)C)CS(=O)(=O)C3)cc1C,3.1,-1,-2.1,0.72,0.3,-3.4,-1%
COc1ccc(C)c2sc(N(CCN(C)C)C(=O)/C=C/c3cccs3)nc12,1.7,22,.,.,0.4,-1.6,.
COc1ccc(/C=C2\SC(=S)N(C(C)C(=O)NC3C=CS(=O)(=O)C3)C2=O)cc1 (stereo not drawn),1.7,5,6.4,0.64,0.4,-3.1,4%
CC1CCCCN1CCCNC(=O)CCCN1C(=O)c2cccnc2Sc2ccccc21 (stereo not drawn),1.2,-1,-1.3,0.64,-2.1,-0.5,-2%
C/C(=C\C(=O)c1ccc(F)cc1)Nc1ccc(N2CCOCC2)cc1,2.1,3,3.7,0.7,0.4,-0.3,?
CC1CCN(C(=O)CCc2ccc(S(=O)(=O)NC(C)(C)C)cc2)CC1,4.3,-2,3.2,0.67,0.4,0.0,29%
CNc1nc2c(C)cccn2c(=O)c1C=Nc1ccc(OC)cc1,1.8,5,-0.3,0.59,0.2,0.8,.
N#Cc1ccc(-c2ccc(F)cc2)nc1Oc1ccc(F)cc1,-0.6,0,-62,0.68,-0.6,3.4,4%
CCOc1cc(/C=C2\SC(=NC)N(C)C2=O)cc(Cl)c1OC(C)=O,2.5,6,4.4,0.68,0.5,0.0,-1%
O=C(COC(=O)c1ccccc1F)NC1CCCC1,-2.8,4,-0.6,0.7,0.9,-1.5,-2%
CC(/C=N/n1c(COc2ccccc2)n[nH]c1=S)=C\c1ccccc1,-0.1,-2,.,.,-0.8,0.7,5%
COc1cccc(-c2nc(Cc3ccc(OC)c(OC)c3)no2)c1,-4.1,-3,1.7,0.71,-1.1,-3.1,2%

# The list continues:
SMILES,HNF4A DNA FP,Beta2AR agonist,UCH37 DUB inh,E coli growth,Bfl-1 A1 inh,LANA-H2A inh,Vif TR-FRET
Cc1cccc(C(C)C)c1NC(=O)C1CCN(S(=O)(=O)c2ccccc2)CC1,-0.8,6,1.8,0.65,0.4,0.7,.
Cc1ccc(Nc2cc(Cl)nc(N)n2)c([N+](=O)[O-])c1,-3.4,6,3.5,0.68,.,.,-6%
CCOC(=O)C1=C(c2ccccc2)OC(N)=C(C#N)C1c1ccncc1 (stereo not drawn),-0.1,4,-11,0.64,-0.1,4.8,.
O=C(Nc1cccc(Cl)c1)N1CCCCCC1,-0.5,1,0.3,0.64,-0.4,2.9,.
COc1ccc(CN2CCC(C(=O)c3ccc(Cl)cc3)CC2)cc1,6.5,20,3.9,0.68,1.3,-0.6,.
CCCC(c1nnnn1Cc1cccs1)N1CCN(C2CCCC2)CC1 (stereo not drawn),1.4,1,0.0,0.76,0.0,1.1,17%
Cc1cc(NS(=O)(=O)c2cccs2)no1,-7.5,4,-0.1,0.69,0.1,5.3,22%
CCN(CC)S(=O)(=O)c1ccc(-c2nnc3sc4cccc(C)c4n23)cc1,-0.8,11,-2.1,0.75,0.4,2.4,-3%
CC(C)(C)c1cc(CN2CCN(CCC#N)CC2)cc(C(C)(C)C)c1O,-1.0,-6,-1.7,0.55,0.1,-4.7,0%
CCc1ccc(OCC(=O)NC(=S)Nc2ccc(C(=O)O)cc2)cc1,0.9,8,2.1,0.69,-0.7,7.1,1%
CCOc1c(OC)cc(C2C(C#N)=C(N)Oc3n[nH]c(-c4ccncc4)c32)cc1OC (stereo not drawn),0.3,-1,1.2,0.69,0.6,4.6,15%
CC1C=CCC2C(=O)N(c3cccc(C(=O)Nc4ccc(Br)cc4)c3)C(=O)C12 (stereo not drawn),0.3,12,5.1,0.71,-0.2,0.4,.
COc1cccc(/C=C/c2ccc3cccc(O)c3n2)c1OC,-3.0,15,.,.,-9.4,0.2,.
Cc1cc(=O)[nH]c2n[nH]c(-c3ccccc3)c12,-2.1,1,-1.2,0.71,-0.6,-5.0,?
COCCOC(=O)C1=C(C)NC(C)=C(C(=O)OCCOC)C1/C=C/c1ccccc1OC,4.8,2,-44,0.72,-0.6,-10.0,-6%
COc1ccccc1C1C(C(N)=O)=C(C)Nc2ncnn21 (stereo not drawn),-3.8,10,-1.9,0.66,-0.4,-1.1,12%
Cc1nn(CC(=O)N2CCN(c3cccc(C(F)(F)F)c3)CC2)c(=O)c2cccn12,3.7,-2,1.3,0.64,-0.8,-0.5,.
O=C(Nc1ccc(-c2cn3ccccc3n2)cc1)c1cccs1,5.3,6,-145,0.66,-10,-1.5,22%
CC(C)CNC(=O)CN1C(=O)NC2(CCCc3ccccc32)C1=O (stereo not drawn),3.0,-1,4.4,0.72,0.2,2.8,.
CCC1=Nc2cc(C(=O)NCc3ccco3)ccc2Sc2ccccc21,6.0,2,2.6,0.69,?,0.8,23%
NNC(=O)/C(=C\c1cccs1)NC(=O)c1ccccc1,0.4,3,2.1,0.68,0.0,-3.5,.
COc1cccc(NC(=O)CN(C)CC(=O)Nc2ccc(Cl)cc2[N+](=O)[O-])c1,1.4,-8,-0.1,0.69,0.6,1.3,.
NS(=O)(=O)c1ccc(CCNC(=O)c2cc(-c3cc(Cl)ccc3O)n[nH]2)cc1,1.2,-3,1.1,0.64,-0.9,-1.8,4%
S=C(NC1CCCCCC1)NC1CCCC1,2.0,-2,-1.0,0.7,0.2,7.3,1%
COc1ccc(/C=C2\SC(=S)N(CC(=O)NC3CCS(=O)(=O)C3)C2=O)cc1 (stereo not drawn),3.7,9,7.5,0.71,-1.2,-1.1,-2%

# Assay outcomes: PubChem BioAssay, several laboratories
